Choline anaer gr – choline-fed anaerobic bacterial growth inhibition; 55,000 compounds, 0.2% hits; calls only; Gram-negative bacterium anaerobic choline minimal medium, absorbance growth; active compounds read low; many inactives read as strong as hits in the columns shown;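 active = growth z-score on choline under -2 at 7 or 20 h with little or no fall on glycerol, limits in tiers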;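 also: stock transfer was 300 nL into about 50 µL; the organism is E. coli; final concentration not given here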
Choline anaer gr early – recorded beside Choline anaer gr, whose call it bears; z-score; measured here: choline growth z-score, timepoint 1;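 score of optical density at 7 h as mean of two plates; lower means less growth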
An asterisk follows results filed as active; i = inactive; & = joins results of further samples. These rows are one share of the data; the hit share may differ from the screen's.

Sample of the layout, 13 compounds:
SMILES | Choline anaer gr | Choline anaer gr early
O=c1[nH]c2ccc(NCc3ccccc3OCc3ccc(F)cc3)cc2[nH]1 | i | 0.38
CN(CCCNC(=O)Cc1ccc(NC(=O)N2CCCCc3ccccc32)cc1)Cc1ccccc1 | i | -0.62
CCCNC(=O)CN1C(=O)CCc2cc(S(=O)(=O)N3CCC(C)CC3)ccc21 | i | 0.32
CC(C)c1cc(C2CCCN2Cc2cccnc2)on1 (stereo unspecified) | i | -2
CCc1ccc(-n2c(=O)c3cccnc3n2CC(=O)NCCC2=CCCCC2)cc1 | i | 0.89
C=Cc1ccc(COC(=O)c2nnn(-c3ccc(OC)c(Cl)c3)c2C)cc1 | i | 1.3
Cc1cc(C)c2c(n1)sc1c(=O)n(CC(=O)Nc3ccc(Cl)cc3)cnc12 | i | -0.23
COc1ccc(Cl)cc1NC(=NCc1ccncc1)NC(=O)c1ccc(CN2CCOCC2)cc1 | i | -1.9
COc1ccccc1C1C2=C(CC(C)(C)CC2=O)Nc2onc(C)c21 (stereo unspecified) | i | 0.22
O=C(NC1CC1)C1(c2ccc(F)cc2)CC1 | i | -1.5
O=C(COc1ccccc1)Nc1ccccc1-c1ccc2ccccc2n1 | i | 1.9
O=C(CN1C(=O)CCSc2ccccc21)Nc1ccccc1F | i | 0.24
O=c1cc(CSc2n[nH]c(-c3ccccc3)n2)nc2nc[nH]n12 | i | -1

All compounds of this part, from the first entry:
SMILES | Choline anaer gr | Choline anaer gr early
O=c1[nH]c2ccc(NCc3ccccc3OCc3ccc(F)cc3)cc2[nH]1 | i | 0.38
CN(CCCNC(=O)Cc1ccc(NC(=O)N2CCCCc3ccccc32)cc1)Cc1ccccc1 | i | -0.62
CCCNC(=O)CN1C(=O)CCc2cc(S(=O)(=O)N3CCC(C)CC3)ccc21 | i | 0.32
CC(C)c1cc(C2CCCN2Cc2cccnc2)on1 (stereo unspecified) | i | -2
CCc1ccc(-n2c(=O)c3cccnc3n2CC(=O)NCCC2=CCCCC2)cc1 | i | 0.89
C=Cc1ccc(COC(=O)c2nnn(-c3ccc(OC)c(Cl)c3)c2C)cc1 | i | 1.3
Cc1cc(C)c2c(n1)sc1c(=O)n(CC(=O)Nc3ccc(Cl)cc3)cnc12 | i | -0.23
COc1ccc(Cl)cc1NC(=NCc1ccncc1)NC(=O)c1ccc(CN2CCOCC2)cc1 | i | -1.9
COc1ccccc1C1C2=C(CC(C)(C)CC2=O)Nc2onc(C)c21 (stereo unspecified) | i | 0.22
O=C(NC1CC1)C1(c2ccc(F)cc2)CC1 | i | -1.5
O=C(COc1ccccc1)Nc1ccccc1-c1ccc2ccccc2n1 | i | 1.9
O=C(CN1C(=O)CCSc2ccccc21)Nc1ccccc1F | i | 0.24
O=c1cc(CSc2n[nH]c(-c3ccccc3)n2)nc2nc[nH]n12 | i | -1
CC(C(=O)c1ccc(Cl)cc1)C1(O)C(=O)Nc2ccccc21 (stereo unspecified) | i | -0.29
COc1ccc(CNC(=O)c2oc3cc4sc(N(C)C)nc4cc3c2C)cc1 | i | 0.19
Cc1nc2ccccc2c(=O)n1-c1ccc(NC(=O)c2cc(F)cc(F)c2)cc1 | i | -0.47
O=C(O)c1ccc(N2CCN(c3ccc(F)cc3)CC2)c(NC(=O)c2ccc(Br)cc2)c1 | i | 0.76
Nc1c(-c2nc(-c3ccc4c(c3)OCO4)cs2)nnn1-c1cc(F)ccc1F | i | 0.77
CN1CCN(Cc2cc(=O)n3[nH]c(-c4ccc(C(C)(C)C)cc4)nc3n2)CC1 | i | 0.27
Cc1nnc(SCC2=NN(c3nc4ccccc4[nH]3)C(=O)C2)s1 | i | -0.26
COc1ccc(N2CCN(c3ncc(S(=O)(=O)c4ccccc4)c(N)n3)CC2)cc1 | i | 0.18
Cc1cc(OCc2nc(C)c(C(=O)Nc3nc(-c4ccccc4)cs3)s2)ccc1Cl | i | -0.04
COCCc1nc(C2CCN(C3CCCCCC3)CC2)n[nH]1 | i | -0.03
CCOC(=O)c1c(C)[nH]c(CCC(=O)N2CCCC2)c1C | i | 0.89
CC(C)(C)c1ccc(-c2nc3nc(CNc4ccc(Br)cc4)cc(=O)n3[nH]2)cc1 | i | -1.6

Continuation:
SMILES | Choline anaer gr | Choline anaer gr early
Cc1ccc2c(cnn2C(=O)CCCC(=O)NC(C)c2ccccc2)c1 (stereo unspecified) | i | -0.03
COc1ccc(C(=O)N2CCCC(c3nc(-c4ccc(NC(C)=O)cc4)no3)C2)cc1 (stereo unspecified) | i | -0.74
COc1cccc(N2C(=O)c3cc(C)nn3CC2(C)C(=O)NCc2ccccc2)c1 (stereo unspecified) | i | -0.96
C=CCNC(=O)C1=Cc2cc(Cl)ccc2OC=C1 | i | 0.62
CCn1c(=O)c(=O)n(CC(=O)NCCC2=CCCCC2)c2cccnc21 | i | -0.19
COc1ccc(C2c3c(n(C)c4ccccc34)C(=O)N2CC(=O)NCCc2c[nH]c3ccccc23)cc1 (stereo unspecified) | i | 0.4
CC(=O)Nc1cc(N2CCn3c(nc4ccccc43)C2)ccc1C | i | 0.41
Cc1cc(S(=O)(=O)NCCc2sc(-c3ccc(Cl)cc3)nc2C)ccc1F | i | 0.99
COC(=O)c1ccc(NC(=O)N2Cc3c(sc4c3CCCC4)-n3cccc3C2c2ccc(N(C)C)cc2)cc1 (stereo unspecified) | i | 0.24
COc1ccc(CNS(=O)(=O)c2cc(CN3C(=O)C4CCCCC4C3=O)ccc2OC)cc1 (stereo unspecified) | i | -0.34
COc1cccc(Cn2ncc3ccc(C(=O)NCc4ccccc4Cl)cc32)c1 | i | 0.8
O=C(NCCc1nc(-c2ccccc2)no1)c1ccccc1Br | i | -0.54
O=C(Nc1nnc(SCC(=O)N2CCN(c3ccccc3)CC2)s1)NC1CCCCC1 | i | 0.34
Cc1nc(-c2cccc(N3CC(C(=O)Nc4ccc(Cl)cc4)CC3=O)c2)no1 (stereo unspecified) | i | 1.7
CC(C)NC(=O)Cn1cnc2nc(N3CCCC(C(=O)NC4CC4)C3)sc2c1=O (stereo unspecified) | i | 0.01
c1ccc(-c2noc(CSc3ccc(-c4ccc5c(c4)OCO5)nn3)n2)cc1 | i | 1.9
Cc1cccc(N2CCN(c3ccc4nnc(CCc5nc(-c6ccccc6C)no5)n4n3)CC2)c1 | i | 0.81
Cn1nc(C(=O)N2CCCC2)c2c1CCN(C(=O)CCC(=O)N1CCN(c3ccccn3)CC1)C2 | i | -0.14
Cc1sc(-c2noc(C3CC3)n2)cc1S(=O)(=O)N1CCCC(C(=O)N2CCOCC2)C1 (stereo unspecified) | i | 0.18
O=c1ccc(-c2ccc3c(c2)OCO3)nn1Cc1nc(-c2ccc(Cl)c(F)c2)no1 | i | -2.3
CCC(C)NC(=O)c1cc(-c2ccc(NC(C)=O)cc2)nc2ccc(C)cc12 (stereo unspecified) | i | 1.1
COc1ccc(NC(=O)c2cnn(-c3ccccc3)c2)cc1 | i | 0.25
Cn1c(CN(c2ccc(F)cc2)S(C)(=O)=O)nnc1SCC(N)=O | i | -1.1
CCOC(=O)c1c(C)c(S(=O)(=O)N2CCN(C)CC2)c(C)n1C | i | -0.27
O=C(CSC1=Nc2ccccc2N=C(c2ccccc2)C1)Nc1cccc(Br)c1 | i | 0.4

Next section:
SMILES | Choline anaer gr | Choline anaer gr early
CCCCC[C@H](O)/C=C/[C@@H]1[C@@H](C/C=C\CCCC(=O)NC(CO)CO)[C@@H](O)C[C@H]1O | i | 1.2
C1=CN2CCN=C2C(N2CCN(Cc3ccccc3)CC2)=N1 | i | 1
CCNc1ncnc2oc(C)c(C(=O)OCC)c12 | i | -0.3
CC(C)C(=O)N1CCCN(S(C)(=O)=O)CC1 | i | 0.26
CCOc1ccc(CN2CCCC2c2cc(C)on2)cc1 (stereo unspecified) | i | -0.9
Cn1ccc(C(=O)N2CCCC2c2ccc(F)cc2)n1 (stereo unspecified) | i | -0.67
CC(=O)N1CCc2cc(S(=O)(=O)N3CCc4cc5cccc(C)c5nc43)ccc21 | i | 0.98
Cc1ccc(NC(=O)c2oc3ccccc3c2NC(=O)c2cc(-c3ccccc3)on2)cc1 | i | 0.06
CC(C)(C)NC(=O)c1cccc(Nc2ncc(-c3cccc(F)c3)cn2)c1 | i | 1.3
Cc1ccc(C2CCCN2S(=O)(=O)c2c(C)cc(C)cc2C)cc1 (stereo unspecified) | i | -0.01
CCc1ccc(NC(=O)N2CC3CCCN3c3ccccc32)cc1 (stereo unspecified) | i | -0.84
Cc1noc(C)c1S(=O)(=O)N1CSC[C@@H]1C(=O)NCc1csc(-c2ccccc2)n1 | i | -1.3
COC(=O)c1cc(OC)c(OC)cc1NC(=O)c1c(-c2ccc(OC)cc2)oc2ccc(OC)cc12 | i | 1.4
CN1C(=O)CSc2ccc(NC(=O)Nc3ccc(Br)cc3F)cc21 | i | 0.52
CCOc1cc(C2C3=C(CC(c4ccc(Cl)cc4)CC3=O)Nc3onc(C)c32)ccc1O (stereo unspecified) | i | 0.76
C#C[C@]1(O)CC[C@H]2[C@@H]3CCc4cc(OC)ccc4[C@H]3CC[C@@]21C | i | 0.72
O=C(Cn1c(=O)c(CCC(=O)NC2CCCC2)nc2ccccc21)Nc1ccc(F)c(F)c1 | i | 1.1
COc1cccc(-c2nnc(SCC(=O)N3CCC(C)CC3)o2)c1 | i | -0.65
Cc1cc2c(cc1S(=O)(=O)N1CCCC(C(=O)N3CCCC3)C1)OCC(=O)N2 (stereo unspecified) | i | 0.05
CCOC(=O)c1c(S(=O)(=O)N2CCC(C(=O)N3CCN(c4ccc(F)cc4)CC3)CC2)c(C)n(C)c1C | i | -0.5
CCCCOc1c(OC)cccc1C1CC(=O)Nc2c1c(C)nn2-c1nc2ccccc2s1 (stereo unspecified) | i | 1.9
COc1ccc(N2CCN(c3nccc4ccc(C(=O)Nc5ccc(F)cc5F)cc34)CC2)cc1 | i | -1.6
Cn1c(=O)c(-c2noc(C(=O)NCC3CCCO3)n2)nn(-c2ccccc2)c1=O (stereo unspecified) | i | 0
CCCn1c(=O)c2ccc(C(=O)NC(C)C)cc2n2c(=O)n(CC(=O)Nc3ccccc3CC)nc12 | i | 0.54
CCCN1C(=O)c2ccccc2Sc2cc(NC(=O)CN3C(=O)COc4ccccc43)ccc21 | i | -0.15

More results
SMILES | Choline anaer gr | Choline anaer gr early
CCCCC(C)(C)[C@H](O)/C=C/[C@H]1[C@H](O)CC(=O)[C@@H]1C/C=C\CCCC(=O)O | i | 0.55&0.15
CCC(C)NC(=O)C1CCCN(C(=O)c2[nH]c(C)c(C(=O)OC(C)C)c2C)C1 (stereo unspecified) | i | -0.64
CCOC(=O)c1c(C)[nH]c(C)c1S(=O)(=O)N1CCCC(C(=O)Nc2ccc(OC)cc2OC)C1 (stereo unspecified) | i | -1.7
CCc1onc(C)c1C1CCCN1C(=O)c1cc(C(C)C)on1 (stereo unspecified) | i | -0.13
C=Cc1ccc(CSc2nnc3n(CCCOC(C)C)c(=O)c4cc(Cl)ccc4n23)cc1 | i | 2.2
O=C(Nc1ccc(S(=O)(=O)Nc2nccs2)cc1)c1csnn1 | i | 0.13
CCOC(=O)c1cc2ccsc2n1CC(=O)Nc1ccc2c(c1)OCO2 | i | 1.3
CC(C)CN1CC(c2nc3ccccc3n2C)CC1=O (stereo unspecified) | i | -0.08
O=C1C(=O)N(C2CCN(C(=O)c3ccccc3Cl)CC2)CCN1Cc1cccc(F)c1 | i | -0.51
COc1ccc(S(=O)(=O)N2CCC(c3nc4c(nnn4Cc4ccccc4F)c(=O)[nH]3)CC2)cc1OC | i | -0.27
O=C(NC(=NCc1ccncc1)Nc1ccc2c(c1)OCCO2)c1ccccc1 | i | -0.76
O=C1CC(c2ccncc2)c2cc3c(cc2N1)OCCO3 (stereo unspecified) | i | -1.3
O=c1cc(-c2ccccc2)nc(N2CCN(Cc3ccc4c(c3)OCO4)CC2)[nH]1 | i | 0.57
CC(C)N1CCn2c(nc3cc(NC(=O)C(C)(C)C)ccc32)C1 | i | -0.92
COc1ccc(S(=O)(=O)N2CCC(n3cnc4cc(Cl)ccc4c3=O)CC2)cc1OC | i | -1.6
O=S(=O)(c1cccc2nsnc12)N1CCc2nc(-c3ccccc3)ncc2C1 | i | -1.1
CCOC(=O)C1CCN(C(=O)CSc2nnc(-c3ccoc3C)o2)CC1 | i | -0.87
O=C(c1ccccc1)N1CC(OCc2ccc(Cl)cc2)C1 | i | 1
COc1cccc2c(=O)c(NC(=O)NCCN3CCOCC3)c[nH]c12 | i | -1.7
O=C1C(=O)N(C2CCN(S(=O)(=O)Cc3ccccc3)CC2)CCN1Cc1ccccc1 | i | -0.02
COc1ccc(S(=O)(=O)N2CCCCC2)cc1-c1noc(C2CCCCC2)n1 | i | -0.2
CCOC(=O)c1cc(-c2ccc(OC)c(S(=O)(=O)Nc3ccc(Cl)cc3)c2)on1 | i | -0.24
O=C(c1ccccc1F)N1CCN=C1N1CCCC1 | i | -0.16
O=C(Nc1ccc2c(c1)OCCO2)N1CCN(c2ccc(-c3noc(C4CCCCC4)n3)cc2)CC1 | i | -0.49
O=C1C(N2CCOCC2)CCCN1CC1CC1 (stereo unspecified) | i | -0.54

Full records, looked up by structure:
COc1ccc(S(=O)(=O)N2CCC(c3nc4c(nnn4Cc4ccccc4F)c(=O)[nH]3)CC2)cc1OC is listed as Choline anaer gr: i; Choline anaer gr early: -0.27
O=C1CC(c2ccncc2)c2cc3c(cc2N1)OCCO3 (stereo unspecified) is listed as Choline anaer gr: i; Choline anaer gr early: -1.3

Additional results.
SMILES | Choline anaer gr | Choline anaer gr early
CCC(CC)c1nnc(NC(=O)C2CC(=O)N(CCc3c[nH]c4ccc(C)cc34)C2)s1 (stereo unspecified) | i | 0.08
Cc1cccc(CCNC(=O)CCS(=O)(=O)c2ccc3nc(C)sc3c2)c1 | i | -1.8
CCc1ccc(NS(=O)(=O)c2cc(-c3nc(C)cs3)cs2)cc1 | i | 1.9
CCOC(=O)N1CCC2(CC1)N=C(c1ccccc1O)CC(c1ccccc1O)N2 (stereo unspecified) | i | -1.8
CC(=CC(=O)OCCCCCCCCC(=O)O)CC1OC[C@H](CC2O[C@H]2C(C)C(C)O)C(O)C1O (stereo partly specified) | i | -2.8
CCCCOc1ccc(NC(=O)c2oc3ccc(F)cc3c2C)c2cccnc12 | i | 1.2
